Screens from PubChem BioAssay.
VDR inhibitor = vitamin D3 receptor (human) inhibition. P11473. VDR-SRC2-3 peptide fluorescence polarization, 2 h. Potency, µM, inactives show max response, negative = inhibition, actives largely listed as inhibitors. 400,000 compounds, 0.93% hits. AID 504847; active means well fitted inhibition curve with a large enough effect; inconclusive means small, poorly fitted or top-dose-only effect, or another doubt; inactive means no such curve, though single readings can be large or run the other way; further: series mostly up to about 120 µM
Target sequence (P11473 whole entry, looked up): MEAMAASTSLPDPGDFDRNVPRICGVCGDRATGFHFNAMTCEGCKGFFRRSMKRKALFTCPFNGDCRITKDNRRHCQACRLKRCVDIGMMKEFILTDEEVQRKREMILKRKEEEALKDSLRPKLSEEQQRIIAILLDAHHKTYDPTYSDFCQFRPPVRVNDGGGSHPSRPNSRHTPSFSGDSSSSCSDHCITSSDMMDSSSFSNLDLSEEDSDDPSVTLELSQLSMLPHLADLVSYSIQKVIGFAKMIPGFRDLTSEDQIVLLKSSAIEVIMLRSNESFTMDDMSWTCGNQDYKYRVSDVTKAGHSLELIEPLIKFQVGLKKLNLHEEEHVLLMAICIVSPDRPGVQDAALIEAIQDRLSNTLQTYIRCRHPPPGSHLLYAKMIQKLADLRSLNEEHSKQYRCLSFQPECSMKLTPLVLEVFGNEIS
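The screen uses fluorescence polarization to detect compounds that interfere with recruitment of the SRC2-3 coactivator peptide to VDR; plates are read after 2 h at room temperature.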
* hit, by the source's call; u = inconclusive; & = joins results of further samples; [ ] = another dose, or the depositor's remark. On the % scale 0 is the no-effect control and ±100 the full control effect; potency means the concentration at half of the fitted maximal effect. This is a subset (hit frequency here may not be typical).

SMILES	VDR inhibitor
N#CC1=C2SC=C(c3ccc(Br)cc3)N2CCCC1=O	8%
O=C(CN1CCOCC1)NCCNS(=O)(=O)c1ccccc1	-6%
CCOc1cccc(OCCCCn2ccnc2)c1	3%
C=C(C)COc1ccc(-c2ncncc2-c2ccc(OC)cc2)c(O)c1	-1%
CCOC(=O)c1c(C)[nH]c(C(=O)OCC(=O)N(C)C2CCS(=O)(=O)C2)c1C (centres undefined)	-5%
CC(C)c1ccc(NC(=O)C2Cc3ccccc3N2C(=O)c2ccccc2)cc1 (centres undefined)	-4%
O=S(=O)(c1ccccc1)N1CCN=C1SCc1ccc(Cl)c(Cl)c1	-22%
CCCCN(CC)CCCNC(=O)c1c(C)oc2ncnc(N3CCOCC3)c12	2%
CCOC(=O)N1CCN(C(=O)C2CCN(C(=O)c3ccc(C(C)(C)C)cc3)CC2)CC1	4%
CC(C)C[C@@H](C=O)NC(=O)[C@H](CC(C)C)NC(=O)[C@H](CC(C)C)NC(=O)OCc1ccccc1	u
CCOC(=O)c1noc2ncn(CC(=O)Nc3ccc(OC)c(Cl)c3)c(=O)c12	5%
COc1cccc(Nc2ncc3nc(-c4ccc(F)cc4)c(=O)n(CCC#N)c3n2)c1	-7%
COc1ccc(NC(=O)c2cc(F)c(F)cc2Cl)cc1Cl	4%
COc1ccccc1CNC(=O)C(NC(=O)Nc1ccccc1)C(C)C (centres undefined)	-22%
CCOc1cccc2sc(N(CCCN(C)C)C(=O)c3ccc(S(=O)(=O)N(C)CC4CCCO4)cc3)nc12 (centres undefined)	0%

Copied from the entries so far, 2 compounds:
SMILES	VDR inhibitor
COc1ccccc1CNC(=O)C(NC(=O)Nc1ccccc1)C(C)C (centres undefined)	-22%
CCOc1cccc2sc(N(CCCN(C)C)C(=O)c3ccc(S(=O)(=O)N(C)CC4CCCO4)cc3)nc12 (centres undefined)	0%

The results go on.
SMILES	VDR inhibitor
COc1ccc(N(C(=O)CNC(=O)c2cccs2)C(C(=O)NCC2CCCO2)c2ccc(OC)c(OC)c2)cc1 (centres undefined)	33%
CCCCC(=O)c1ccc(OC(=O)c2ccc([N+](=O)[O-])cc2)cc1	-12%
CC(C)CCC(C)NC(=O)CN1C(=O)NC(C)(c2ccc3ccccc3c2)C1=O (centres undefined)	-2%
O=C(Nc1ccc(Oc2ccc(NC(=O)Nc3ccccc3Cl)cc2)cc1)Nc1ccccc1Cl	-2%
CCN1CCSc2ccc(C(=O)NC(C)c3ccccc3)cc21 (centres undefined)	-17%
COc1ccc(CCNC(=O)C2CCC(CNc3c(N4CCCC4)c(=O)c3=O)CC2)cc1OC (centres undefined)	1%
COc1ccc(C(NC(=O)/C=C/c2ccco2)c2ccc(OC)c(OC)c2)cc1OC	-21%
C=CCN(Cc1cccs1)C(=O)COc1ccc2c(c1)OCO2	9%
CCOc1ccccc1CNCCCSc1nnnn1C	4%
C[C@@H]1CN([C@H](C)CO)C(=O)c2cc(NC(=O)Nc3ccc(C(F)(F)F)cc3)ccc2O[C@H]1CN(C)C(=O)Nc1ccc(F)cc1	0%
CC(=O)c1cccc(NC(=O)Nc2c(C)nn(C)c2C)c1	-1%
c1coc(Cn2nnnc2CN2CCN(C3CCCC3)CC2)c1	2%
COc1cccc(NC(=O)Cc2c(C(=O)O)[nH]c3ccccc23)c1	-3%
Cc1nc2sccn2c(=O)c1S(=O)(=O)Nc1ccc(N2CCN(C(=O)C(C)C)CC2)cc1	12%&-3%
C/C(CC1CC(COCC(C)C)OC1=O)=N\Nc1nc(-c2ccccc2)cs1 (centres undefined)	u

Brought forward from above: four entries, then new ones.
SMILES	VDR inhibitor
c1coc(Cn2nnnc2CN2CCN(C3CCCC3)CC2)c1	2%
COc1cccc(NC(=O)Cc2c(C(=O)O)[nH]c3ccccc23)c1	-3%
Cc1nc2sccn2c(=O)c1S(=O)(=O)Nc1ccc(N2CCN(C(=O)C(C)C)CC2)cc1	12%&-3%
C/C(CC1CC(COCC(C)C)OC1=O)=N\Nc1nc(-c2ccccc2)cs1 (centres undefined)	u
CCN(CC)S(=O)(=O)c1ccc(Cl)c(NC(=O)COC(=O)/C=C/c2ccc(O)c(OC)c2)c1	-12%
CCOc1ccccc1C(=O)OCC(=O)Nc1cc(S(=O)(=O)N2CCOCC2)ccc1C	-9%
CC1=C(C#N)C(Nc2ccc(C)cn2)(C(F)(F)F)C(=O)N1 (centres undefined)	22%
O=C(NNC(=S)NCc1ccccc1)c1ccccc1OC(F)F	-12%
CC12CC3(C)CC(C)(C1)CC(C(=O)NC(=S)N1CCOCC1)(C2)C3	-11%
CCOc1ccc(/C=N/NC(=O)c2cc3c(OC)cccc3[nH]2)cc1	u
Cc1ccc(NC(=O)N2CCc3ccccc3C2)cc1	11%
CC1(C)CC(NC(=O)c2cc(S(=O)(=O)N3CCOCC3)ccc2Cl)CC(C)(C)N1	-6%
CC(C)c1cc(CNC(=O)C2CCC(=O)N(Cc3ccccc3F)C2)on1 (centres undefined)	3%
OCC1(CC2CCCCO2)CCN(Cc2ccccc2-c2ccco2)CC1 (centres undefined)	25%
CCCCCOc1ccc(C(=O)Nc2ccc(N3CCOCC3)cc2N2CCOCC2)cc1	22%
COc1ccc(CNC(=O)CCCn2nc(C)c3sc4ccccc4c3c2=O)cc1OC	10%
N#Cc1ccc(OCC(=O)OCCCOC(=O)COc2ccc(C#N)cc2)cc1	-4%
Cc1cc(-c2ccc(C)c(S(=O)(=O)NCc3cccc(Br)c3)c2)on1	5%&9%
Cc1ccc(OCC(O)CN2CCOCC2)cc1C (centres undefined)	-11%
Cn1cc(C(F)(F)F)nc1-c1ccc(OCC(O)CNCCOc2ccc(O)c(C(N)=O)c2)cc1 (centres undefined)	9%&5%&-26%
CCOC(=O)CSc1nnc(-c2ccccc2)c(-c2ccccc2)n1	6%
Cc1cccc(NC(=O)NC2CCCCCCC2)c1	8%
O=C1C2C3C=CC(CC3)C2C(=O)N1/N=C/c1ccc(O)c(O)c1 (centres undefined)	-1%
COc1ccc(-c2nc(NC(=O)c3n[nH]c(=O)c4ccccc34)sc2C)cc1	-7%
Cc1cccc(N(CC(=O)NCCSCc2ccccc2)S(=O)(=O)c2ccccc2)c1C	-17%
COC(=O)CNC(=O)C(CCSC)NC(C)=O (centres undefined)	8%
CCOC(=O)c1cn2nc(Oc3ccc(OC)cc3)ccc2n1	3%
COC(=O)c1sc(NC(=O)/C=C/c2ccc(C)o2)nc1C	14%
CN1C(=O)c2ccc(C(=O)NCc3ccccc3)cc2C1=O	-3%
Cn1ccc(C(=O)OCC(=O)Nc2ccccc2Cl)n1	4%
NC(=O)C1CCN(C(=O)c2cc(-c3ccc(Cl)cc3)nc3ccccc23)CC1	-10%
Cc1ccc(N(O)C(=O)NCCCCNC(=O)N(O)c2ccc(C)cc2)cc1	7%
CCC1C(=O)N=C(SCC(=O)Nc2ccc(C(=O)OC)cc2)NC1=O (centres undefined)	-5%
Cc1csc(NC(=O)CSc2nnc(-c3cccnc3)o2)n1	-8%
Cc1ccc(Sc2c(C#N)c(-c3ccccc3)nn2C)cc1	2%
Oc1ccc(Cl)cc1-c1cc(-c2ccccc2Cl)[nH]n1	-6%
c1ccc(Oc2ccc(-c3ccnc4nc(N5CCOCC5)nn34)cc2)cc1	-1%
OCCN(CCCn1c(C(F)(F)F)nc2ccccc21)c1nc(CN2CCCCC2)cs1	-21%
O=S(=O)(Nc1cccc(-c2ccc(N3CCCCCC3)nn2)c1)c1ccccc1	12%
COc1cc(NS(=O)(=O)c2ccc(NC(=O)/C=C/c3cccc([N+](=O)[O-])c3)cc2)ncn1	3%
NC(=O)CSc1nnc2sc3ccccc3n12	2%
N#C/C(=C(\O)C(F)(F)F)c1nnc2n1CCCCC2	-14%
CC(=O)Nc1c2c(nn1-c1ccccc1C)CS(=O)(=O)C2	4%
O=C(/C=C/c1ccccc1)OCCCN=C1NS(=O)(=O)c2ccccc21	9%
C/C(=N\NC(=S)NC(C)C)c1ccc(Cl)s1	-24%
COc1cccc(OCC(=O)Nc2ccc(OC)c(OC)c2)c1	-4%
COC(=O)c1ccc(NC(=O)CC2C(=O)N(c3ccc(Cl)cc3)C(=O)N2Cc2ccco2)cc1 (centres undefined)	14%
CN(Cc1ccccc1)C(=O)CSc1cc(=O)n(C)c2ccccc12	2%
CC(C)N(C(=O)[C@H]1C[C@H](CC(=O)NC(C)(C)C)C(=O)N2CCc3c([nH]c4cc(-c5ccco5)ccc34)[C@]12C)C(C)C	u
Cc1cccc(-n2ncc3c(N4CCOCC4)ncnc32)c1	-3%
Cc1ccc(OC(=O)c2cc(-c3ccccc3)nc3ccc(C)cc23)cc1	-21%
CC(C)OC(=O)CSc1nc(-c2ccc(F)cc2)cc(C(F)(F)F)n1	3%
COc1cc(OC)c(NC(=O)c2ccccc2F)cc1Cl	-12%
O=C(NC1CCC(O)CC1)c1ccc(-c2ccc(Cl)cc2)o1 (centres undefined)	11%
Oc1ccccc1C1=NCCNC(C(F)(F)F)=C1	-13%
CCc1cc(C(=O)N2CCCC(CO)(Cc3ccc(F)cc3)C2)n(C)n1 (centres undefined)	1%
Cc1ccc(CSCC(=O)N2CCOCC2)cc1	-19%
O=C(NN=Cc1ccc(F)cc1)c1cccc(S(=O)(=O)N2CCCC2)c1	-2%
c1ccc2c(c1)[nH]c1nc3nncn3nc12	-5%
O=C(NCCO)C(=O)NCC1CCCN1S(=O)(=O)c1cccs1 (centres undefined)	2%
NC(=NCCc1ccccc1)c1cccc([N+](=O)[O-])c1	-7%
COc1ccc(N(C(=O)c2ccccc2)S(=O)(=O)c2cccs2)cc1	22µM*
Cc1cc(C(=O)CSc2nnc(Nc3ccccc3)s2)c(C)n1CC1CCCO1 (centres undefined)	7%
COc1cc([N+](=O)[O-])cc(/C=N/NC(=O)C(C)Nc2cccc3ccccc23)c1O (centres undefined)	-4%

Next section:
SMILES	VDR inhibitor
Cc1ccc2nc(NC(=O)C3CCCN(S(=O)(=O)c4cccnc4)C3)sc2c1 (centres undefined)	-6%
Cc1cccc(C(=O)Nc2c(C(=O)N3CCN(C)CC3)cnn2-c2ccccc2)c1	3%
Cc1ccc(C)c(S(=O)(=O)NCCN2CCOCC2)c1	9%
Cc1ccc(N(C(=O)c2cccs2)C2C=CS(=O)(=O)C2)cc1 (centres undefined)	-16%
Cc1cccc(N2CCN(CCNC(=O)Nc3ccc(Cl)cc3)CC2)c1C	-23%
CCOC(=O)N1CCN(C(=O)c2cccc(OC)c2O)CC1	15%
O=C1COc2ccc(C(=O)COC(=O)c3c(F)cccc3Cl)cc2N1	8%
CC(=C\C(=O)O)/C(=C\c1cccc2ccccc12)C(=O)O	8%
COc1ccc(Nc2ccccc2C(=O)O)cc1	27%
CCOc1ccccc1C(=O)N/N=C/c1ccoc1	10%
Cc1cccc(C(=O)N2CCC(=O)N([C@H](COCc3cccc(C(F)(F)F)c3)Cc3ccccc3)CC2)c1	u
CNc1ccccc1C(C)(C)c1cc(-c2cccc([N+](=O)[O-])c2)no1	31%[activator]
COc1ccc(N(CC(=O)Nc2cc(Cl)ccc2OC)S(=O)(=O)c2c(C)noc2C)cc1	12%
CCCCCC(=O)Nc1nnc(CCc2ccccc2)s1	2%
Cc1ccccc1CNC(=O)CCC(=O)N1CCOc2ccc(Cl)cc21	-1%
Cc1c(C(=O)N(CC(C)C)c2c(N)n(Cc3ccccc3)c(=O)[nH]c2=O)sc2nc3n(c(=O)c12)CCC3	-10%
CCOC(=O)c1ccc(NC(=O)CCNS(=O)(=O)c2cc(Br)cnc2N)cc1	-18%
COc1ccc(/C=C2\SC(=O)N=C2N)cc1	0%
COc1ccc(-c2noc(CNC(=O)C(C)Oc3ccccc3)n2)cc1 (centres undefined)	-2%
COC(=O)c1ccc(NC(=O)C(=O)c2c[nH]c3ccccc23)cc1	-19%
CCOC(=O)C1=C(C)NC(=O)NC1c1cccc(O)c1 (centres undefined)	-2%
CCOC(=O)CCNC(=O)N1CCC(CCC(=O)NCc2ccc(F)cc2)CC1	-22%
CCOC(=O)Nc1ccc(S(=O)(=O)Nc2nccc(C)n2)cc1	3%
S=c1[nH]cnc2sc(-c3ccccc3)cc12	7%
O=C(NCC1CCCN(Cc2cccc(C(F)(F)F)c2)C1)c1ccc(F)cc1 (centres undefined)	-5%
O=C(COC(=O)c1cnccn1)NCc1ccc(Cl)cc1	-8%
O=C(Cn1cccn1)N1CCCC(N2CCN(c3cccc(C(F)(F)F)c3)CC2)C1 (centres undefined)	8%
CC[C@]1(C(=O)OC)[C@H]2C(=O)N(C)C(=O)[C@H]2[C@H]2CN=C(SCc3ccc(C(=O)OC)cc3)N21	-2%
Cn1c(=O)c2c(nc(SCC(=O)NC34CC5CC(CC(C5)C3)C4)n2C)n(C)c1=O	2%
COc1cccc(NC(=S)NCCc2ccccn2)c1	-15%

4 entries already listed, sorted by the number in VDR inhibitor, largest number first.
Molecule | VDR inhibitor
O=C(NCC1CCCN(Cc2cccc(C(F)(F)F)c2)C1)c1ccc(F)cc1 (centres undefined) | -5%
CCOC(=O)c1ccc(NC(=O)CCNS(=O)(=O)c2cc(Br)cnc2N)cc1 | -18%
COC(=O)c1ccc(NC(=O)C(=O)c2c[nH]c3ccccc23)cc1 | -19%
CCOC(=O)CCNC(=O)N1CCC(CCC(=O)NCc2ccc(F)cc2)CC1 | -22%

Rewritten comma-delimited: entries from further up
SMILES,VDR inhibitor
COc1ccc(-c2nc(NC(=O)c3n[nH]c(=O)c4ccccc34)sc2C)cc1,-7%
Cc1csc(NC(=O)CSc2nnc(-c3cccnc3)o2)n1,-8%
CC(C)OC(=O)CSc1nc(-c2ccc(F)cc2)cc(C(F)(F)F)n1,3%
CCN(CC)S(=O)(=O)c1ccc(Cl)c(NC(=O)COC(=O)/C=C/c2ccc(O)c(OC)c2)c1,-12%
CC12CC3(C)CC(C)(C1)CC(C(=O)NC(=S)N1CCOCC1)(C2)C3,-11%

(list continues)
SMILES	VDR inhibitor
CC(CNCCCn1cnc2c(OCc3ccccc3)ncnc21)c1ccccc1 (centres undefined)	3%
COc1ccc(C2/C=C\CN(C(=O)C3CCCCC3)CC(=O)N2Cc2ccc(F)cc2)cc1 (centres undefined)	-9%&-10%
CCC1(CC)C(=O)N(c2ccccc2)C(=N)N(c2ccccc2)C1=O	-11%
CO/N=C/NC(=O)NOCc1c(Cl)cccc1Cl	11%
